# Screening results deposited in PubChem by National Center for Advancing Translational Sciences (NCATS).
# NS1 function inh: blocks influenza NS1 protein function | S. cerevisiae slowed by influenza A NS1, growth recovery by OD600 | Potency, µM (top dose mostly 46.1 µM), without a hit: at the highest dose activity, positive = more growth | actives 0.4% (n = 270,000) | AID 2326; active means well fitted rising curve with a large enough effect; inconclusive means small, poorly fitted or top-dose-only effect; inactive means no such curve, though single readings can be large or run the other way; further: nearly all actives have a fitted effect of over 50% in size
#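 In this qHTS, NS1 from influenza A is expressed in budding yeast, where it slows growth. Cells are switched from glucose to 2% galactose medium (pH 6.0, -URA), treated with compound, and growth recovery is read at OD600.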
# Cruzain inh noDet: inhibitors of Trypanosoma cruzi cruzain without detergent; P25779; purified cruzain, Z-FR-AMC fluorescence, no detergent; Potency, µM, for inactives: max response, negative = inhibition, most hits filed as inhibitors; actives 2.3% (n = 200,000); AID 1476;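 further: plate controls were enzyme without inhibitor for no effect and buffer without enzyme for full effect; nearly all actives have a fitted effect of over 40% in size; top concentration of the series not given in the record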
# Target sequence (P25779 123-467 limits assumed): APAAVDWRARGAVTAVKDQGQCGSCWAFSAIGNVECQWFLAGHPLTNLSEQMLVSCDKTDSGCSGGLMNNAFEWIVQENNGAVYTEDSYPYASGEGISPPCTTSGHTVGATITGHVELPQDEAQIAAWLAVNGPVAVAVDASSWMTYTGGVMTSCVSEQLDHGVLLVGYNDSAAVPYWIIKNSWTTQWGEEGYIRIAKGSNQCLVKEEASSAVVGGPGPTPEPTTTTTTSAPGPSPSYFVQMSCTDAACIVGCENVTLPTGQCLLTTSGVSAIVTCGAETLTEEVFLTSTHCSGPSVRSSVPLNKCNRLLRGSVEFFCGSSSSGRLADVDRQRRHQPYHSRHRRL
#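 Purified cruzain at 1.5 nM, pre-incubated 15 min with compound at room temperature in 100 mM sodium acetate pH 5.5, 5 mM DTT, 0.00005% Triton X-100. Reaction started with 2 uM Z-FR-AMC; AMC fluorescence increase over 60 s gives rate.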
# SARS PLpro yeast: SARS-CoV PLP inhibition in yeast; actives 0.19% (n = 330,000); Potency, µM (highest dose often 32.9 µM), inactives show at the top dose activity, positive = growth rescue; AID 485353; S. cerevisiae expressing SARS-CoV PLpro, growth rescue; control for the full effect not named in the record; active means well fitted rising curve with a large enough effect; inconclusive means small, poorly fitted or top-dose-only effect; inactive means no such curve, though single readings can be large or run the other way; further: 0% is about no effect; nearly all actives have a fitted effect of over 55% in size; growth read by luminescence after 48 h
# RE007 growth inh: less growth of the S. pombe RE007 Vpr strain | Potency, µM (series often up to 92.2 µM), for the others: at the highest dose activity change, negative = less growth | S. pombe RE007 Vpr strain, BacTiter-Glo ATP luminescence, 24 h; control for the full effect not named in the record | AID 651644 | actives 0.21% (n = 360,000); active = well fitted falling curve with a large enough effect; inconclusive = small, poorly fitted or top-dose-only effect; inactive = no such curve, though single readings can be large or run the other way;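 further: on the % scale 0 is the no-effect control and ±100 the full control effect; nearly all actives have a fitted effect of over 50% in size; the assay follows cell death caused by Vpr and the record does not say whether a fall means rescue or toxicity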
#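 Fission yeast strain RE007, carrying one chromosomally integrated HIV-1 vpr copy, was seeded at OD 0.01 in PMG+AL medium with 23 nL pinned compound. After 24 h at 30 °C and 99% humidity, viability was read by BacTiter-Glo luminescence.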
# StopGo reporter: lowers the luciferase signal of an FMDV 2A StopGo reporter; human cells with a luciferase reporter of 2A StopGo recoding; control for the full effect not named in the record; Potency, µM (series often up to 57.9 µM), for inactives: at the highest dose signal change, negative = less light; actives 1.2% (n = 410,000); active = well fitted falling curve with a large enough effect; inconclusive = small, poorly fitted or top-dose-only effect; inactive = no such curve, though single readings can be large or run the other way; tested in HEK293T cells; further: on the % scale 0 is the no-effect control and ±100 the full control effect; nearly all actives have a fitted effect of over 45% in size; luciferase light after 4 h
# MARV entry inh: blocks Marburg virus binding to or entry into cells. Marburg virus pseudotyped entry inhibition, cell reporter; control for the full effect not named in the record; about a third of the inactives were read at about 46 µM. Potency, µM (highest dose often 37.8 µM), inactives show at the highest dose activity change, negative = inhibition, hits mostly inhibitors. actives 1.8% (n = 300,000). AID 540276; active = well fitted inhibition curve with a large enough effect; inconclusive = small, poorly fitted or top-dose-only effect, or effect the other way; inactive = flat fitted curve, though single readings scatter; tested in HEK293 cells; about a fifth of its hits are not listed in these tables; further: on the % scale 0 is the no-effect control and ±100 the full control effect; luciferase read-out
# Cruzain Triton: cruzain (T. cruzi) inhibition with detergent. actives 0.43% (n = 200,000). P25779. Potency, µM, without a hit: max response, negative = inhibition, usual class: inhibitors. purified cruzain, Z-FR-AMC fluorescence, 0.01% Triton;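 further: plate controls were neutral wells for no effect and buffer without enzyme for full effect; nearly all actives have a fitted effect of over 40% in size; top concentration of the series not given in the record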
#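 Steps: dispense cruzain (1.5 nM final) in acetate buffer pH 5.5 with DTT and 0.01% Triton X-100; pin-transfer compounds; incubate 15 min RT; add Z-FR-AMC (2 uM final); read fluorescence every 30 s, using the 60 s intensity change.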
# Lassa entry inh: Lassa virus entry inhibition. actives 1.2% (n = 300,000). Potency, µM (highest dose often 37.9 µM), for the others: at the top dose activity change, negative = inhibition, actives largely listed as inhibitors. Lassa virus pseudotype entry inhibition, cell reporter; control for the full effect not named in the record; active means well fitted inhibition curve with a large enough effect; inconclusive means small, poorly fitted or top-dose-only effect, or effect the other way; inactive means flat fitted curve, though single readings scatter; tested in HEK293 cells; further: on the % scale 0 is the no-effect control and ±100 the full control effect; nearly all actives have a fitted effect of over 50% in size; luciferase read-out
# Starred values were filed as active, the others as inactive; ? = inconclusive; . = no result given; & = joins results of further samples; [ ] = dose if it differs, or a comment. Unless noted, the call rests on the fitted dose curve; in most records, active means well fitted curve in the direction sought with a large enough effect; inconclusive means small, poorly fitted or top-dose-only effect, or another doubt; inactive means no such curve, though single readings can be large; an effect the other way counts as inactive or inconclusive. Potency means the concentration at half of the fitted maximal effect.
SMILES,NS1 function inh,Cruzain inh noDet,SARS PLpro yeast,RE007 growth inh,StopGo reporter,MARV entry inh,Cruzain Triton,Lassa entry inh
CCS(=O)(=O)c1nn2c(N)c(/C=C3/C=CC(=O)C(OC)=C3)c(=O)nc2s1,21%,3%,15%,1%,-16%,6%,-5.6%,-8%
COC(=O)CNC(=O)CSc1nnc(-c2ccc(OC)cc2)n1CC(C)C,-7%,-2%,3%,-5%,-15%,17%,3.3%,0%
Cc1ccc(C2(C)NC(=O)N(CC(=O)Nc3cc(S(=O)(=O)N4CCCCC4)ccc3OC(C)C)C2=O)cc1 (centres undefined),.,.,-2%,-14%,5%,?,.,-22%[46.1 µM]
Cc1nn(C)c2c1c(C(F)(F)F)cc(=O)n2CC(=O)NCCC(C)C,.,8%,.,.,-14%,.,-0.5%,-3%[46.1 µM]
COc1cccc(Nc2nnc(SCC(=O)N(CC(C)C)CC(C)C)s2)c1,4%,0%,-5%,1%,?,?,-7.1%,-13%
C=CCN1C(=O)S/C(=C/c2ccc(Sc3nc4ccccc4[nH]3)o2)C1=O,22%,-15%,-1%,-2%,28µM*,?,-11%,20µM*
O=C(c1ccc(CSc2nc3ccncc3n2Cc2ccc(F)cc2)cc1)N1CCCCCC1,.,-6%,.,.,0%,-20%[46.1 µM],-11%,-21%[46.1 µM]
O=C(c1ccc2ccccc2n1)N1CCN(c2ccccc2Cl)CC1,.,.,-1%,4%,45%[activator],18%[46.1 µM],.,-12%[46.1 µM]
COc1ccc(N(CC(=O)Nc2cc(OC)c(OC)cc2C(=O)O)S(=O)(=O)c2c(C)noc2C)cc1,17%,.,-1%,7%,4%,.,.,.
N#CC1=C(N)Oc2n[nH]c(-c3ccccc3)c2C1c1ccncc1 (centres undefined),-2%,-4%,0%,-4%,-8%,7%,-4.4%,18%
O=C(CN1C(=O)c2ccccc2C1=O)NC1CCC(O)CC1 (centres undefined),.,.,-1%,16%,-15%,?,.,-9%
CC(=O)Nc1ccc(NC(=O)C(C)OC(=O)CNC(=O)c2cccs2)cc1 (centres undefined),.,.,2%,-27%,-16%,0%,.,?
S=C(NCCc1ccccc1)NCCc1ccccc1,-38%,-12%,-34%,6%,64%[activator],?,-6.8%,23%
O=C(CCc1ccccc1)Nc1c(F)cccc1F,.,.,.,-11%,55%[activator],?,.,8%
CCc1cc2c(-c3ccccc3)cc(=O)oc2cc1OC(C)C(=O)NCC1CCC(C(=O)O)CC1 (centres undefined),8%,.,3%,-2%,-18%,.,.,.
Cc1cccc(NC(=O)Cn2nnc(C(=O)Nc3ccc(F)c(Cl)c3)c2N)c1,-1%,25µM*,-1%,2%,-25%&9%,.,-0.7%,?
C=CCSc1nnc(N2C(=O)C(O)=C(C(=O)c3ccco3)C2c2ccccc2F)s1 (centres undefined),-3%,.,-2%,4%,10%,.,.,.
CC(C)(C)NC(=O)NC(=O)COC(=O)Cc1coc2ccc3ccccc3c12,6%,-5%,-37%,2%,-11%,-26%,-17%,12%
Cc1ccc(C)c(Oc2cc(NC(=O)CCCn3nc(C)c([N+](=O)[O-])c3C)cc([N+](=O)[O-])c2)c1,?,-28%,-1%,-4%,0%,?,6.2%,?
O=C(NNC(=O)c1ccc[nH]1)c1cc(Cl)cc(Cl)c1,17%,.,2%,-1%,0%,?,.,-6%[46.1 µM]
CC(C)OP(=O)(OC(C)C)C(NC(=O)c1ccccc1Br)C(N)=O (centres undefined),1%,.,-1%,-1%,10%,3%[46.1 µM],.,15%[46.1 µM]
CCOc1cc(NC(=O)CCl)c(OCC)cc1NC(=O)CCl,?,.,-3%,6%,?,?,.,?
NS(=O)(=O)c1ccc(CCN2C(=O)/C(=C\c3ccc(Cl)cc3)SC2=S)cc1,9%,25µM*,0%,2%,-13%,?,-2.0%,?
CC1=CN2CC(O)CN=C2C=C1 (centres undefined),-3%,-5%,2%,0%,9%,11%,5.4%,5%[14.3 µM]
O=C(Nc1cccc(-c2ccc(N3CCOCC3)nn2)c1)c1ccc(Cl)cc1,.,.,-2%,5%,14%,1%,.,10%
CCc1ccc(C(=O)c2cnc3ccc(C)cc3c2S(=O)(=O)c2ccc(OC)cc2)cc1,.,-11%,.,.,-18%,-18%[46.1 µM],-1.9%,.
CC(=O)N1CCN2C(=O)C1CCCC(=O)c1cc(C(C)C)ccc12 (centres undefined),0%,11%,1%,-2%,19%,0%,0.2%,7%
CCOCCc1nn2c(=O)cc(COC(=O)c3ccccc3NC(=O)c3ccc(C)cc3)nc2s1,.,-5%,.,.,26%,.,-0.3%,?
CN(C)C(=O)c1ccc(NC(=O)CSc2nnc(-c3ccc4c(c3)OCO4)o2)cc1,.,.,-4%,0%,-18%,?,.,-9%
Cc1ccc(S(=O)(=O)Nc2cccc(C(=O)NCc3ccccn3)c2)cc1F,.,.,11%,-8%,35%[activator],-24%,.,-34%
C=CCN(CC=C)C(=O)COn1nnc2ccc(S(=O)(=O)N3CCOCC3)cc21,.,.,.,-6%,-8%,-2%,.,12%
COc1cccc(CN2CCN(Cc3ccccc3C(F)(F)F)CC2)c1,-15%,.,10%,1%,-22%,?,.,-8%[46.1 µM]
Cc1ccc(NC(=S)Nc2ccc(OC(F)F)c(Cl)c2)cc1F,.,.,-12%,9%,-10%,-29%[46.1 µM],.,-5%
Cc1ccc(/C=N/NC(=O)c2ccncc2)s1,-1%,.,-2%,3%,16%,23%[46.1 µM],.,7%[46.1 µM]
CC1CCCC(C)N1C(=O)CN1C(=O)C(C)(C)Oc2ccc(C(=O)NC3CCCC3)cc21 (centres undefined),-3%,1%,.,2%,-13%,-9%,2.6%,-12%
CC(C)(C)/C=N/NC(=O)CNC(=O)c1ccc2c(c1)OCCO2,9%,-3%,27%,-3%,15%,17%,-2.1%,-5%
O=C(Nc1ccccc1)OCc1cc(-c2ccc(Cl)cc2)on1,-30%,-4%,1%,-21%,-15%,11%,-0.7%,-1%
COCCCNc1nc2ccccc2nc1NS(=O)(=O)c1cc(Cl)ccc1Cl,-39%,.,-5%,-12%,0%,.,.,.
CCn1ncc(C2=NOC(C(=O)NCCc3ccccc3)C2)c1C (centres undefined),-1%,-21%,-1%,-6%,9%,-2%,3.5%,4%
Cc1ccccc1C(=O)Nc1nc(-c2ccc(Br)cc2)ns1,.,20%,.,.,?,-2%[46.1 µM],-4.2%,3%[46.1 µM]
O=C(Nc1ccc2oc(-c3ccncc3)nc2c1)c1ccco1,-44%,.,-25%,-4%,3%,?,.,3%[46.1 µM]
c1ccc(-n2ncc3c(N4CCN(c5ccccn5)CC4)nc(N4CCCCC4)nc32)cc1,0%,-11%,0%,.,.,.,2.1%,.
O=Nc1ccc(NOC(=O)c2ccccc2Br)cc1,-39%,-5%,-59%,?,2%,8%,-12%,9%
CC(C)Cc1nnc(NC(=O)C23CC4CC(CC(C4)C2)C3)s1,3%,.,-1%,-14%,17%,.,.,.
CCOC(=O)c1cc(OC(=O)c2ccccc2F)n(-c2ccccc2)n1,.,3%,.,.,-10%,-5%[46.1 µM],-6.0%,-9%[46.1 µM]
Cc1cccc(OCC(=O)N/N=C/c2cccn2C)c1,-6%,.,0%,-2%,13%,.,.,.
O=C(O)CCCNC1=NCCC1,-1%,8%,1%,19%,0%,16%,3.7%,8%
Cc1[nH]c(=S)c(C#N)c(C)c1CC(=O)c1ccc(Br)cc1,?,.,-8%,-15%,-22%,.,.,.
COCCNC(=S)N/N=C(\C)c1cccc(OC)c1,.,.,8%,4%,-12%,-21%[46.1 µM],.,-30%
O=C(c1ccc(N2CCOCC2)nc1)N1CCCCC1,-3%,-5%,-5%,9%,.,?,0.8%,11%
Cc1ccc(-c2ccc(C(=O)Nc3ccccc3)o2)c2ccccc12,-23%,?,-16%,3%,27%,-19%,-19%,?
CCOC(=O)c1c(C)[nH]c(C)c1S(=O)(=O)N1CCC(C(=O)Nc2ccc(OC)c(OC)c2)CC1,.,1%,.,.,-12%,.,0.4%,?
CC1=C(C(=O)Nc2ccc(Cl)cc2)C(c2cccs2)n2nc(SCc3cccc(C)c3)nc2N1 (centres undefined),.,-3%,.,.,-6%,-2%[46.1 µM],0.5%,0%[46.1 µM]
CNc1ccccc(-c2ccc3ccccc3n2)c1=O,-8%,-16%,-20%,-5%,25%,?,-11%,?
O=C(CN1CCN(c2ccc(F)cc2)CC1)NCc1ccc(F)cc1,-6%,.,12%,-10%,4%,.,.,.
CC(OC(=O)CCc1cc(C(C)(C)C)c(O)c(C(C)(C)C)c1)C(=O)NC1CC1 (centres undefined),.,.,-3%,-16%,13%,?,.,?
CN(CC(=O)NCc1ccc2c(c1)OCO2)S(=O)(=O)c1ccc(Br)s1,-7%,-3%,7%,26%,0%,22%,-3.9%,0%
O=C(Nc1ccc(CN2CCCCC2)cc1)Nc1ccc(Br)cc1Cl,.,.,1%,-25%,-10%,10µM*,.,?
CC1=CC(C)C2C(=O)N(c3ccccc3)NC(=O)C2C1 (centres undefined),2%,6%,11%,12%,-9%,-16%,-0.5%,?
Cc1nc(C)c(-c2ccn(C(=O)NC(C)C)n2)s1,-1%,.,1%,3%,-11%,-7%[46.1 µM],.,-28%[46.1 µM]
COc1ccc(S(=O)(=O)NCCC(=O)N2CCCC2)cc1N(C)S(C)(=O)=O,-6%,.,0%,-7%,4%,3%[46.1 µM],.,.
CCOC(=O)CSc1nc(NCc2ccco2)c2ccccc2n1,-6%,-5%,-8%,-6%,-18%,-6%,3.0%,?
COc1ccc(C(=O)NCCc2ccccc2)cc1[N+](=O)[O-],-7%,.,3%,-3%,40%[activator],1%,.,?
